RGS16-Gao: RGS16-Galphao interaction regulator (human); bead-based flow cytometry RGS16-Galphao binding, fluorescence; actives lie on both sides; binding response (% of control), % at 10 µM; 220,000 compounds, 0.38% hits;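 active means below 25% or above 175%, edge rows of some plates excepted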;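 further: Galphao activated by GDP with aluminum fluoride before binding; 100% = wells without compound and 0% = beads without RGS; some results beyond the cut were filed as inactive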
Target sequence (O15492 whole entry, looked up): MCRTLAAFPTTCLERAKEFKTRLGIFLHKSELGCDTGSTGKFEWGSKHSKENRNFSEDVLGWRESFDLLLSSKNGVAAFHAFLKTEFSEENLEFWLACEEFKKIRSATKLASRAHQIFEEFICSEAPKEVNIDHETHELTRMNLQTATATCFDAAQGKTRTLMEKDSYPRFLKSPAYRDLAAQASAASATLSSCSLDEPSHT
Target sequence (P09471 whole entry, looked up): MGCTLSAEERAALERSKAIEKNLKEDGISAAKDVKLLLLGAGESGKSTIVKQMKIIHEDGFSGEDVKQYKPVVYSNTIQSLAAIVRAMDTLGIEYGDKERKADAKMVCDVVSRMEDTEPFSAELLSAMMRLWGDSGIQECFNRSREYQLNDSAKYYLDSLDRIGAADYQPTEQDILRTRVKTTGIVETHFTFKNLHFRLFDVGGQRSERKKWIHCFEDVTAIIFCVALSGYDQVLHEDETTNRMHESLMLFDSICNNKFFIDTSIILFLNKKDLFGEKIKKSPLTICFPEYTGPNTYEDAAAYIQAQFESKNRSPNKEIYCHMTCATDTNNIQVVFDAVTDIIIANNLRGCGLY
PKD1 inh: inhibitors of human PKD1 kinase | 200,000 compounds, 0.056% hits | PKD1 kinase fluorescence polarization assay | inhibition, %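 (about 10 µM by stock and volumes)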;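 active means inhibition of 50% or more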;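 further: controls were vehicle for no effect and a reference inhibitor for full effect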
HSV replic up: HSV replication enhancement. HSV replication augmentation in cells, fold increase. maximum fold increase. 220,000 compounds, 0.005% hits;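 active means peak rise of 1.5-fold or more in the series; inconclusive means self-fluorescent or not available for retest; tested in PC3 cells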;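 further: first round at 10 µM; read as green reporter fluorescence; hits show the peak of a series up to 25 µM; 1 = signal of infected wells without compound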
Insulin prom inh: TRM-6 insulin promoter activity inhibition; TRM-6 cells (human fetal islet line), insulin promoter-eGFP reporter, imaging; reporter expression induced with tamoxifen; inhibition, % at 2 µM; 130,000 compounds, 0.9% hits;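 active means inhibition above the mean plus 3 SD, with well images judged a real hit on visual review, cut at about 60% in these data, passing the limit was not always enough; inconclusive means inhibition over the cutoff but images rejected on review; inactive means inhibition not above the cutoff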
GALR2 agonist: activates the human galanin receptor 2. O43603. GALR2-expressing cells, agonist activation read-out. activation, %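 (tested at 5 µM)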. 140,000 compounds, 0.48% hits;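 active means above mean plus 3 SD of all compounds, about 5% in these data, not always enough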;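 further: 0% = vehicle buffer wells and 100% = reference agonist at full effect; tested in CHO reporter cells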
Target sequence (O43603 whole entry, looked up): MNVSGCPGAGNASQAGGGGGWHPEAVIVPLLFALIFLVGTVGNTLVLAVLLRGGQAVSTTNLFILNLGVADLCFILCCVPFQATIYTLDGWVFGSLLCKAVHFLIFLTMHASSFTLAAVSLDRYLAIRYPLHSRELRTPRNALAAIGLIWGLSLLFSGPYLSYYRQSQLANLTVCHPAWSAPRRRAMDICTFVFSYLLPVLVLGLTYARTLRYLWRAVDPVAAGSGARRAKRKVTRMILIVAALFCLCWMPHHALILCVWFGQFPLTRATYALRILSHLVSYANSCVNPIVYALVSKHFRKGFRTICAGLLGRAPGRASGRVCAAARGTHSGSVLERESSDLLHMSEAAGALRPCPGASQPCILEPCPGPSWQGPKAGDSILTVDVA
Insulin prom inh cell count: also measured in Insulin prom inh; calls as there; normalized cell count, %; measured here: cell count, toxicity; reference of the scale not given here;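 cells exposed to compound for 48 h; stained nuclei by imaging scaled within each plate; lower means fewer cells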
HSV replic up primary fold: further read-out of HSV replic up, marked with its call; fold increase; compound at 10 µM; measured here: primary screen fold increase 10 uM; tested in PC3 cells;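 GFP signal in the first replicate; 1 = infected wells without compound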
Numbers without * were called inactive; i = inactive; ? = inconclusive; . = not tested or not shown.

SMILES	RGS16-Gao	PKD1 inh	HSV replic up	HSV replic up primary fold	Insulin prom inh	Insulin prom inh cell count	GALR2 agonist
Cc1ccc(NC(=O)CN(C)C(=O)COc2cc(F)ccc2[N+](=O)[O-])cc1	103	-1	i	1.1	.	.	.
CCCNC(=O)N1CCN(S(C)(=O)=O)CC1	104	0	i	0.94	.	.	.
O=C1Nc2ccccc2N2CCCC12 (configuration not stated)	102	2	i	1	14	132	.
CCN(CC)c1ccc(/C=N/NC(=O)c2ccco2)c(O)c1	91	.	i	0.8	.	.	.
CCc1ccc(C(=O)NC(CCSC)C(=O)O)cc1 (configuration not stated)	103	-12	i	0.98	38	100	-0.1
O=C(N/N=C/c1cc(Br)c(O)c(Br)c1)c1cccc(C(F)(F)F)c1	103	-1	i	1	14	144	0.3
COc1ccc(-c2ocnc2C(=O)N2CCN(Cc3cccnc3)CC2)cc1	100	.	i	0.99	.	.	.
COc1ccc(Cl)cc1Nc1nc(-c2sc(NC(=O)c3ccco3)nc2C)cs1	90	-4	i	0.82	5	84	-0.6
O=C(c1ccccc1)c1nccn1-c1ccc(Cl)nn1	91	.	i	1	.	.	.
Cc1ccccc1NC(=S)N1CCN(C(=O)c2ccco2)CC1	99	-5	i	1.1	18	114	.
CC(=O)N1c2ccccc2C(C)(c2ccccc2)CC1(C)C (configuration not stated)	71	-5	i	0.78	0	122	-0.5
O=C(COc1ccccc1)Nc1nnc(C23CC4CC(CC(C4)C2)C3)s1	.	-4	i	0.82	-5	130	-0.5
Cc1ccc(S(=O)(=O)CC(c2ccccc2)N2CCOCC2)cc1 (configuration not stated)	101	-10	i	0.82	-15	99	-0.8
CCCCCCCCCCC(=O)NNC(=O)c1c(O)c2ccccc2n(CC)c1=O	105	1	i	1	11	60	.
COc1cccc(CN(C)C(=O)c2ccc3nccnc3c2)c1	85	-12	i	0.98	-3	110	-1.4
O=S(=O)(/N=C(/Nc1ccccc1)c1ccccc1)c1cccs1	104	16	i	1.1	.	.	1.1
N#Cc1nc(Cc2cccc3ccccc23)oc1NCCCN1CCOCC1	103	-10	i	0.8	.	.	-1.4
O=C(O)C1CCCN1S(=O)(=O)c1cccs1 (configuration not stated)	88	0	i	1.1	6	48	-1.2
Cc1ccc(NC(=O)c2cccc(OCc3c(C)noc3C)c2)c(C)c1	102	2	i	0.87	19	152	-1.9
CCOC(=O)C(C)Sc1nnc(NC(=O)c2ccc3c(c2)OCO3)s1 (configuration not stated)	97	5	i	0.96	-3	93	.
C/C(=N/NC(=O)CNC(=O)c1ccccn1)c1cccc([N+](=O)[O-])c1	104	3	i	1	.	.	.
Cc1sc(NC(=O)CN2CCOCC2)nc1-c1ccc2c(c1)CCN2S(=O)(=O)c1ccccc1	89	-2	i	0.78	4	137	-0.3
CC(C)CNC(=O)c1cccc(NC(=O)CSc2ccc(Cl)cc2)c1	110	-6	i	0.93	-36	123	-0.6
COc1cnc(-c2ccccn2)nc1N(C)C	98	-7	i	0.68	.	.	.
CCCCc1noc2c1/C(=N\O)CC(c1ccccc1)C2 (configuration not stated)	90	-2	i	0.92	5	160	0.9
CCCCCCOc1ccc(C(=O)O)cc1C#N	98	-8	i	1	-36	60	-2.8
O=C(Nc1nnc(-c2ccc3c(c2)CCCC3)o1)c1ccccc1Cl	102	12	i	0.94	.	.	-1.4
CCc1nc2ccccc2n1CC1CC1(Cl)Cl (configuration not stated)	101	-7	i	0.95	44	93	.
COC(=O)C1CCCCN1C(=O)CCc1nnc(CCc2c[nH]c3ccccc23)o1 (configuration not stated)	102	0	i	0.92	.	.	.
Cc1ccc(C)c(N2CN(Cc3cccnc3)CNC2=S)c1	21*	-9	i	0.99	.	.	-2.0

Taken from the results shown (21 entries):
SMILES	RGS16-Gao	PKD1 inh	HSV replic up	HSV replic up primary fold	Insulin prom inh	Insulin prom inh cell count	GALR2 agonist
Cc1ccccc1NC(=S)N1CCN(C(=O)c2ccco2)CC1	99	-5	i	1.1	18	114	.
CC(=O)N1c2ccccc2C(C)(c2ccccc2)CC1(C)C (configuration not stated)	71	-5	i	0.78	0	122	-0.5
O=C(COc1ccccc1)Nc1nnc(C23CC4CC(CC(C4)C2)C3)s1	.	-4	i	0.82	-5	130	-0.5
Cc1ccc(S(=O)(=O)CC(c2ccccc2)N2CCOCC2)cc1 (configuration not stated)	101	-10	i	0.82	-15	99	-0.8
CCCCCCCCCCC(=O)NNC(=O)c1c(O)c2ccccc2n(CC)c1=O	105	1	i	1	11	60	.
COc1cccc(CN(C)C(=O)c2ccc3nccnc3c2)c1	85	-12	i	0.98	-3	110	-1.4
O=S(=O)(/N=C(/Nc1ccccc1)c1ccccc1)c1cccs1	104	16	i	1.1	.	.	1.1
N#Cc1nc(Cc2cccc3ccccc23)oc1NCCCN1CCOCC1	103	-10	i	0.8	.	.	-1.4
O=C(O)C1CCCN1S(=O)(=O)c1cccs1 (configuration not stated)	88	0	i	1.1	6	48	-1.2
Cc1ccc(NC(=O)c2cccc(OCc3c(C)noc3C)c2)c(C)c1	102	2	i	0.87	19	152	-1.9
CCOC(=O)C(C)Sc1nnc(NC(=O)c2ccc3c(c2)OCO3)s1 (configuration not stated)	97	5	i	0.96	-3	93	.
C/C(=N/NC(=O)CNC(=O)c1ccccn1)c1cccc([N+](=O)[O-])c1	104	3	i	1	.	.	.
Cc1sc(NC(=O)CN2CCOCC2)nc1-c1ccc2c(c1)CCN2S(=O)(=O)c1ccccc1	89	-2	i	0.78	4	137	-0.3
CC(C)CNC(=O)c1cccc(NC(=O)CSc2ccc(Cl)cc2)c1	110	-6	i	0.93	-36	123	-0.6
COc1cnc(-c2ccccn2)nc1N(C)C	98	-7	i	0.68	.	.	.
CCCCc1noc2c1/C(=N\O)CC(c1ccccc1)C2 (configuration not stated)	90	-2	i	0.92	5	160	0.9
CCCCCCOc1ccc(C(=O)O)cc1C#N	98	-8	i	1	-36	60	-2.8
O=C(Nc1nnc(-c2ccc3c(c2)CCCC3)o1)c1ccccc1Cl	102	12	i	0.94	.	.	-1.4
CCc1nc2ccccc2n1CC1CC1(Cl)Cl (configuration not stated)	101	-7	i	0.95	44	93	.
COC(=O)C1CCCCN1C(=O)CCc1nnc(CCc2c[nH]c3ccccc23)o1 (configuration not stated)	102	0	i	0.92	.	.	.
Cc1ccc(C)c(N2CN(Cc3cccnc3)CNC2=S)c1	21*	-9	i	0.99	.	.	-2.0

(more compounds)
SMILES	RGS16-Gao	PKD1 inh	HSV replic up	HSV replic up primary fold	Insulin prom inh	Insulin prom inh cell count	GALR2 agonist
CSc1nc(-c2ccccc2)nc2c1COC(C)(C)C2	97	-10	i	0.9	-27	80	-3.1
Cc1cccc(C(=O)NCC2CCCO2)c1 (configuration not stated)	100	5	i	0.87	67	133	-1.1
Cc1ccc(OCC(=O)N2c3ccccc3NC(=O)C2(C)C)c([N+](=O)[O-])n1	106	-8	i	0.98	-42	207	.
CCc1ccc(C(CC(=O)c2ccc(Cl)cc2)C(=O)O)cc1 (configuration not stated)	106	-12	i	0.93	0	69	-0.8
COc1ccc(C(=O)Nc2nc(-c3ccc([N+](=O)[O-])cc3)c(-c3ccc(OC)cc3)s2)cc1	106	-10	i	1	.	.	-1.0
CCOC(=O)c1sc(/N=C/c2ccc(O)cc2O)cc1C	105	-8	i	0.87	28	99	1.1
CC(C)(C)C(=O)Cn1c[n+](N)cn1	101	-15	i	1.1	-132	43	1.0
Cc1[nH]nc2c1C(c1ccc3c(c1)OCO3)C(C#N)=C(N)O2 (configuration not stated)	97	-5	i	0.97	13	104	-5.1
O=C(NNC(=O)c1cc(-c2ccco2)nc2ccccc12)c1ccccc1	97	.	i	1.1	.	.	.
CNC(=O)c1ccccc1NC(=O)c1cccc(S(=O)(=O)N2CCC(C)CC2)c1	101	-4	i	0.89	-50	89	-0.8
O=C(/C=C/c1ccc(F)cc1)N1CCN(S(=O)(=O)/C=C/c2ccccc2)CC1	98	5	i	0.86	.	.	.
c1ccc(-n2nnc(-c3cccnc3)n2)cc1	95	-4	i	1.2	.	.	.
CC(=O)c1cccc(NC(=O)N2CCC(NC(=O)C34CC5CC(CC(C5)C3)C4)CC2)c1	102	-4	i	0.86	57	110	.
CC(=O)N1CCCc2ccccc21	97	5	i	1	7	108	-1.3
CC(O)CNc1nc2ccccc2n1CC(=O)NCCc1ccc(Cl)cc1 (configuration not stated)	102	5	i	0.9	-29	92	-0.3
CC1CN(C(=O)c2cc3cc([N+](=O)[O-])ccc3s2)CC(C)O1 (configuration not stated)	101	-4	i	1.1	14	143	.
CC(=O)N1N=C(c2ccc(C)o2)CC1c1ccc(F)cc1 (configuration not stated)	72	2	i	1	67	79	0.6
Cc1ccc(C)c(NC(=S)NCCCN2CCOCC2)c1	95	0	i	1.1	.	.	.
Cc1ccc(OCC(=O)NNC(=O)CSc2ncnc3sc(C)c(C)c23)cc1	104	-5	i	0.94	.	.	.
Cc1ccc(S(=O)(=O)N(C)CC(=O)O/N=C(\N)c2ccccn2)cc1	103	-17	i	0.94	0	92	-2.0
O=C(/C=C/c1ccco1)NC(=S)Nc1ccccc1O	108	-4	i	1	.	.	.
C=CCn1c(CNC(=O)c2ccccc2F)nnc1SCC(=O)NC(C)c1ccccc1 (configuration not stated)	103	-8	i	1	.	.	.
Cc1ccc(S(=O)(=O)N2CCC(C(=O)Nc3ccc4c(c3)COC4=O)CC2)cc1	98	-1	i	0.84	32	125	-1.5
CS(=O)(=O)N1CCN(c2ccc(C(=O)N3CCOCC3)cc2[N+](=O)[O-])CC1	103	2	i	0.79	.	.	.
O=c1c2c(nc3n1CCCCC3)-c1ccccc1CC21CCCCC1	105	5	i	0.92	-205	84	-0.1
C=CCN1C(=O)/C(=C\C=C2\N(C)c3ccccc3C2(C)C)SC1=S	88	40	?	.	i	76	-1.3
CS(=O)(=O)CCC(C(=O)OCc1ccc(Br)cc1)N1C(=O)c2ccccc2C1=O (configuration not stated)	100	1	i	1	.	.	-1.6
CCn1c(SCC(=O)OC2CCCCC2)nc2ccccc2c1=O	101	1	i	0.88	-9	88	-1.6
CCOc1ccccc1NC(=O)N1CCC(c2nc3ccccc3[nH]2)CC1	101	-4	i	0.96	6	82	-1.0
COc1cc(CN2CC(C)CC(C)C2)cc([N+](=O)[O-])c1O (configuration not stated)	99	-8	i	1	-14	114	0.4
COc1ccc(/C=C2\CN(Cc3ccccc3)C/C(=C\c3ccc(OC)cc3OC)C2=O)c(OC)c1	104	-1	.	.	.	.	-2.5
Cc1nn2c(-c3ccc(Cl)cc3Cl)nnc2s1	108	12	i	0.99	.	.	-1.2
CC(C)c1nnc(SCC(=O)N2CCc3ccccc32)n1C	.	-10	i	0.98	58	121	-1.5
Cc1ccccc1OCCC(=O)Nc1c(C)n(C)n(-c2ccccc2)c1=O	104	-3	i	0.79	.	.	-1.1
COc1cccc(CC2(CO)CCN(Cc3ccc(NC(C)=O)cc3)CC2)c1	102	3	i	0.99	.	.	.
O=C(Cn1cc(/C=N/NC(=O)c2cccc3ccccc23)c2ccccc21)Nc1ccc(F)cc1	101	.	i	0.8	.	.	.
O=C(c1nnsc1S(=O)c1ccc(Cl)cc1)N1CCOCC1 (configuration not stated)	79	-6	i	0.56	-218	18	.
CCn1c(SCC(=O)N2CCc3ccccc32)nnc1-c1ccncc1	95	10	i	0.92	21	128	0.6
Cc1cc(Oc2ccc(=O)n(C)n2)nc(Oc2ccc(=O)n(C)n2)n1	103	-12	i	0.94	-12	142	-0.6

Screens deposited in PubChem BioAssay by several laboratories.
